Shh pathway inh: Sonic Hedgehog pathway inhibition. Shh-LIGHT2 Gli-luciferase reporter, 30 h. inhibition, % (concentration not given with the values). actives 2.1% (n = 22,000). AID 2313;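 active means replicate mean of 65% or more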;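 further: pathway switched on by Shh-conditioned medium diluted 1 in 25 in low serum; 100 nL library stock added to about 40 µL; 0% = median of neutral wells and 100% = positive control level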
PD-1 reversal: reversal of PD-1 mediated T-cell inhibition | primary human CD4 T cells, PD-L1 beads, CellTiter-Glo 96 h | activation, % (concentration not given with the values) | 29,000 tested, under 10 active;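 active means replicate mean of 50% or more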;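 further: 0% = median vehicle wells and 100% = positive control; 100 nL library stock added to about 50 µL; numbers are from one replicate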
YB-1 expression: YB-1 expression inhibition | U2OS, qRT-PCR YB-1 vs CDIP delta delta Cp, 16 h; stronger effect = higher value; zero = DMSO, each unit about twofold | delta delta Cp (YB-1 minus CDIP) (test concentration not listed) | actives 0.37% (n = 30,000) | AID 434959;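 active means delta delta Cp rounded down to an integer at or above 3, about 3 SD of DMSO wells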;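 further: higher means less YB-1 transcript or more CDIP transcript relative to DMSO; stock transfer was 100 nL into about 100 µL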
MITF inh: inhibitors of MITF; inhibition, % (test concentration not listed); TRPM1 promoter luciferase, luminescence, 24 h; actives 0.28% (n = 37,000);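 active means most replicates at 85% or more, or half of them and the mean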;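 further: human melanocyte line stably carrying TRPM1 promoter luciferase reporter; 0% = vehicle wells and 100% = a positive control; the first replicate is given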
An asterisk follows results filed as active; / = not tested or not shown. The list is partial, so the mix of outcomes need not match the whole.

Sample of the layout:
Structure	Shh pathway inh	PD-1 reversal	YB-1 expression	MITF inh
C[C@@H]1CN([C@H](C)CO)C(=O)Cc2cc(NC(=O)Nc3cccc4ccccc34)ccc2O[C@@H]1CN(C)S(=O)(=O)c1cn(C)cn1	/	/	0.17	6
CS(=O)(=O)N(CC(N)=O)c1ccc(F)c(Cl)c1	/	2.2	/	0
C[C@@H]1CN([C@@H](C)CO)C(=O)Cc2cc(NC(=O)CCCCCC(=O)Nc3ccccc3N)ccc2O[C@@H]1CN(C)C(=O)Nc1cccc2ccccc12	/	-0.8	-1.1	-17

The whole of this part, from the first entry:
Structure	Shh pathway inh	PD-1 reversal	YB-1 expression	MITF inh
C[C@@H]1CN([C@H](C)CO)C(=O)Cc2cc(NC(=O)Nc3cccc4ccccc34)ccc2O[C@@H]1CN(C)S(=O)(=O)c1cn(C)cn1	/	/	0.17	6
CS(=O)(=O)N(CC(N)=O)c1ccc(F)c(Cl)c1	/	2.2	/	0
C[C@@H]1CN([C@@H](C)CO)C(=O)Cc2cc(NC(=O)CCCCCC(=O)Nc3ccccc3N)ccc2O[C@@H]1CN(C)C(=O)Nc1cccc2ccccc12	/	-0.8	-1.1	-17
O=C(CN1C(=O)COc2ccc(Cl)cc21)Nc1ccc2c(c1)OCCO2	/	0.7	/	5
CC(C)NC(=O)Nc1cccc2c1O[C@H](CN(C)Cc1ccc(-c3ccccc3)cc1)[C@@H](C)CN([C@H](C)CO)C2=O	-7	1.0	-0.27	24
Cc1ccc(NC(=O)CSc2nnc(C)s2)c(C)c1	/	1.1	/	-15
O=c1[nH]c2ccc(F)cc2c(O)c1-c1ccccc1	/	-0.7	-0.059	-7
Cc1noc(C)c1NC(=O)N(C)C[C@H]1Oc2ccc(NS(=O)(=O)c3ccc(Cl)cc3)cc2CC(=O)N([C@H](C)CO)C[C@H]1C	11	1.1	-0.24	1
CC(C)NC(=O)Nc1ccc2c(c1)CC(=O)N([C@@H](C)CO)C[C@@H](C)[C@@H](CN(C)Cc1ccc3c(c1)OCO3)O2	20	1.2	0.47	-8
Cc1noc(C)c1NC(=O)N(C)C[C@H]1Oc2ccc(NC(=O)CCCCCC(=O)Nc3ccccc3N)cc2CC(=O)N([C@@H](C)CO)C[C@@H]1C	/	-0.1	-0.88	-1
COc1cc2c(cc1OC)N1C(=O)C[C@]34C=CCN5CC[C@@H]2[C@@H](CC3)[C@]514	-4	/	0.16	/
CCCCC1(COC(=O)CCC(=O)O)C(=O)N(c2ccccc2)N(c2ccccc2)C1=O	-9	-2.7	-0.11	4
COc1cc(OC)nc(NC(=O)CSc2nc3ccccc3s2)n1	/	-0.7	/	36
C[C@@H]1CCCCO[C@@H](CN(C)C(=O)Nc2ccc(C(F)(F)F)cc2)[C@@H](C)CN([C@H](C)CO)C(=O)c2cc(NC(=O)c3ccncc3)ccc2O1	5	-4.5	0.32	-2
Cc1nc(C)n(CC(O)COc2ccc3ccccc3c2)n1 (stereo unspecified)	/	0.8	/	1
C[C@@H]1CN([C@@H](C)CO)C(=O)c2cc(N(C)C)ccc2O[C@@H]1CN(C)Cc1ccc(C(=O)Nc2ccccc2N)cc1	/	-3.1	0.21	36
C=C(C(=O)O[C@@H]1O[C@H](CO)[C@@H](O)[C@H](O)[C@H]1O)[C@@H]1CC[C@@]2(C)C[C@H](O)C[C@@](C)(O)C2C1 (stereo partly specified)	-13	/	0.33	/
Cc1ccc(CCN=c2c([N+](=O)[O-])nn(-c3ccc4c(c3)OCCO4)n2O)cc1	/	-0.5	/	-60
CC(C)c1ccccc1Oc1coc2cc(OCC(=O)Nc3ccccc3F)ccc2c1=O	/	1.2	/	-4
C[C@@H]1CN([C@H](C)CO)C(=O)Cc2cc(NC(=O)NC3CCCCC3)ccc2O[C@H]1CN(C)Cc1ccc(C(=O)O)cc1	-7	2.1	-0.15	-3
CCN(CC(=O)Nc1ccc(F)c(Cl)c1)S(=O)(=O)c1ccc2ccccc2c1	/	-0.5	/	4
COC(=O)c1cccc(NC(=O)CN(c2ccc(I)cc2)S(C)(=O)=O)c1C	/	0.1	/	-75
C[C@H]1CN([C@@H](C)CO)C(=O)Cc2cc(NC(=O)Nc3ccc(F)cc3)ccc2O[C@@H]1CN(C)S(=O)(=O)c1ccc(Cl)cc1	-20	0.5	-0.15	8
C[C@@H]1CN([C@@H](C)CO)C(=O)c2cccc(NS(=O)(=O)c3cccs3)c2O[C@H]1CN(C)Cc1ccccc1	3	-0.5	-0.56	0
COc1ccc(C)cc1NC(=O)CSc1nnc(-c2ccc(Cl)c(Cl)c2)n1C	/	-1.3	/	7

Structure	Shh pathway inh	PD-1 reversal	YB-1 expression	MITF inh
C[C@@H]1CN([C@H](C)CO)C(=O)c2cccc(NC(=O)C3CC3)c2O[C@H]1CN(C)Cc1ccc(Cl)c(Cl)c1	25	/	0.2	34
O=C(COc1ccc(Cl)cc1Br)Nc1ccccc1C(=O)NC1CCCCC1	/	-3.4	/	19
Cc1ccc(S(=O)(=O)Nc2ccc3c(c2)CC(=O)N([C@H](C)CO)C[C@@H](C)[C@@H](CN(C)C(=O)NC(C)C)O3)cc1	-15	/	-0.11	-13
COc1ccc(NC(=O)Nc2ccc3c(c2)C(=O)N([C@@H](C)CO)C[C@@H](C)[C@H](CN(C)C(=O)NC(C)C)O3)cc1	/	3.9	-0.068	-9
COc1cc(Cl)c(C)cc1NC(=O)Cc1ccccc1[N+](=O)[O-]	/	-3.3	/	41
C[C@@H]1CN([C@H](C)CO)C(=O)c2cccc(NC(=O)Nc3ccccc3)c2O[C@H]1CN(C)CC1CC1	-7	0.9	-0.64	-3
O=C(NCc1ccccn1)C1CC(c2ccc(Cl)c(Cl)c2)=NO1 (stereo unspecified)	/	0.8	/	17
C[C@@H]1CCCCO[C@@H](CN(C)Cc2ccccc2)[C@@H](C)CN([C@H](C)CO)C(=O)c2cc(NS(=O)(=O)c3ccc(Cl)cc3)ccc2O1	24	-1.7	0.55	5
Cc1ccc(S(=O)(=O)Nc2ccc3c(c2)C(=O)N([C@H](C)CO)C[C@@H](C)[C@@H](CN(C)S(=O)(=O)c2cccs2)O3)cc1	22	-1.5	0.15	-5
C[C@@H]1CN([C@H](C)CO)C(=O)c2cccc(NC(=O)NC3CCCCC3)c2O[C@H]1CN(C)Cc1ccncc1	28	-0.8	-0.6	-3
COc1ccc(-c2noc(CCC(=O)Nc3ccc(C)c(C)c3)n2)cc1	/	0.6	/	7
O=c1c(Cc2ccccc2)c(O)c2cccc3c4ccccc4n1c23	-53	-2.1	-0.42	4
C[C@H]1CN([C@@H](C)CO)C(=O)Cc2cc(NC(=O)Cc3cn(C)c4ccccc34)ccc2O[C@H]1CN(C)CC1CCCCC1	-1	/	0.38	-18
CO/N=C(\C(=O)N[C@@H]1C(=O)N2C(C(=O)O)=C(COC(N)=O)CS[C@H]12)c1ccco1	-7	/	0.24	-10
C[C@@H]1CCCCO[C@@H](CN(C)C(=O)c2ccccc2)[C@@H](C)CN([C@H](C)CO)C(=O)c2cc(NS(=O)(=O)c3cn(C)cn3)ccc2O1	-59	3.5	0.19	-6
CC(C)Oc1ccccc1NC(=O)CSc1nnc(-c2ccccc2Cl)o1	/	1.4	/	-45
C[C@@H]1CN([C@@H](C)CO)C(=O)c2cccc(NS(=O)(=O)c3ccc(Cl)cc3)c2O[C@@H]1CN(C)C	4	1.2	0.18	-1
O=C(O)c1ccc(Cl)c(S(=O)(=O)N2CCCC2C(=O)O)c1 (stereo unspecified)	/	2.0	/	-21
COc1ccc(NC(=O)Nc2ccc3c(c2)CC(=O)N([C@H](C)CO)C[C@@H](C)[C@@H](CN(C)C(=O)Nc2ccc(C(F)(F)F)cc2)O3)cc1	-2	0.0	0.49	3
COc1cc(O)c(C(=O)c2c(C)cc(O)cc2OC)c(O)c1	0	-12	-0.018	-16
COc1ccc(-n2c(SCC(=O)Nc3ccc(C)c(Cl)c3)nnc2-c2ccncc2)cc1	/	-8.1	/	-8
COc1ccc(CN(C)C[C@H]2Oc3c(NC(=O)Nc4c(C)noc4C)cccc3C(=O)N([C@H](C)CO)C[C@H]2C)cc1	42	0.1	0.006	-3
C[C@H](CO)N1C[C@H](C)[C@H](CN(C)C(=O)NC2CCCCC2)Oc2c(NC(=O)c3nc4ccccc4s3)cccc2C1=O	24	-2.4	0.12	42
C[C@H]1CN([C@@H](C)CO)C(=O)Cc2cc(NC(=O)Nc3ccc4c(c3)OCO4)ccc2O[C@H]1CN(C)S(=O)(=O)c1cccs1	2	/	-0.047	19
COC(=O)c1ccccc1NC(=O)CNC(=O)c1ccc(C(C)(C)C)cc1	/	0.0	/	-8

Structure	Shh pathway inh	PD-1 reversal	YB-1 expression	MITF inh
C[C@H]1CN([C@@H](C)CO)C(=O)c2cccc(NC(=O)c3cnccn3)c2O[C@H]1CN(C)C(=O)NC1CCCCC1	-14	-0.6	0.14	-2
COc1ccc(S(=O)(=O)N(C)C[C@@H]2Oc3c(cccc3N(C)C)C(=O)N([C@H](C)CO)C[C@@H]2C)cc1	19	-2.5	0.23	10
COc1ccc(NC(=O)Nc2cccc3c2O[C@@H](CN(C)S(=O)(=O)c2ccc(F)cc2)[C@H](C)CN([C@H](C)CO)C3=O)cc1	-19	0.7	0.15	1
C[C@@H]1CCCCO[C@@H](CN(C)C(=O)C2CCCCC2)[C@@H](C)CN([C@H](C)CO)C(=O)c2cc(NC(=O)CCCCCC(=O)Nc3ccccc3N)ccc2O1	/	-0.8	-0.1	1
Cc1noc(C)c1S(=O)(=O)Nc1ccc2c(c1)C(=O)N([C@H](C)CO)C[C@H](C)[C@@H](CN(C)S(=O)(=O)c1cn(C)cn1)OCCCC[C@@H](C)O2	-23	/	0.41	11
COC(=O)c1sc2nc(-c3ccccc3)nc(Nc3nc(C)cc(C)n3)c2c1C	/	1.8	/	-17
CC(C)NC(=O)Nc1ccc2c(c1)C(=O)N([C@H](C)CO)C[C@@H](C)[C@H](CN(C)S(=O)(=O)c1ccc(Cl)cc1)O2	/	0.6	-0.12	-7
O=C(CSc1n[nH]c(-c2ccncc2)n1)Nc1cccc(Cl)c1Cl	/	-0.6	/	14
C[C@@H]1CN([C@H](C)CO)C(=O)c2cc(NC(=O)Nc3ccccc3)ccc2O[C@@H]1CN(C)S(=O)(=O)c1cccs1	-8	0.2	0.19	0
Cc1cccc(C)c1OCC(=O)Nc1cccc(NC(=O)c2ccco2)c1	/	0.8	/	18
CCCCC1(COC(=O)c2ccc(OC)cc2)C(=O)N(c2ccccc2)N(c2ccccc2)C1=O	-28	-0.3	1.1	6
COc1cccc(C(=O)Nc2cccc(OC(C)C(=O)c3cccc(Cl)c3)c2)c1 (stereo unspecified)	/	0.7	/	32
C[C@H]1CN([C@@H](C)CO)C(=O)c2cc(NS(=O)(=O)c3ccccc3)ccc2O[C@H]1CN(C)C	1	0.5	0.46	-7
O=C(COc1ccccc1C(=O)Nc1cccc(Cl)c1Cl)Nc1ccc(N2CCOCC2)c(Cl)c1	/	-1.6	/	21
C[C@@H]1CN([C@H](C)CO)C(=O)Cc2cc(NC(=O)Nc3ccccc3)ccc2O[C@H]1CN(C)CC1CC1	-26	2.7	-0.32	-8
C[C@H](CO)N1C[C@H](C)[C@@H](CN(C)Cc2ccccc2)Oc2ccc(NC(=O)CCC(F)(F)F)cc2C1=O	/	2.8	0.15	-15
CCc1ccc(OCC(=O)Nc2ccc(-c3nc4ccccc4o3)c(O)c2)cc1	/	-0.4	/	-27
COC(=O)c1c(NC(=O)COc2ccc(C(C)C)c(C)c2)sc2c1CCC2	/	0.6	/	-5
C[C@H]1CN([C@@H](C)CO)C(=O)c2cccc(N(C)C)c2O[C@H]1CN(C)C(=O)Nc1ccccc1	16	1.3	0.62	1
CCn1c(SCC(=O)Nc2ccc(Cl)cc2C)nnc1-c1ccncc1	/	0.6	/	-9
CCc1ccc(NC(=O)CSc2nnc(-c3ccc(Br)cc3)n2C)cc1	/	3.5	/	-3
COc1ccc(S(=O)(=O)Nc2ccc3c(c2)C(=O)N([C@@H](C)CO)C[C@@H](C)[C@@H](CN(C)S(=O)(=O)c2ccc(OC)cc2)O3)cc1	9	1.4	0.48	0
CC(C)NC(=O)Nc1ccc2c(c1)C(=O)N([C@H](C)CO)C[C@H](C)[C@@H](CN(C)C(=O)Cc1ccccc1)OCCCC[C@@H](C)O2	/	/	-0.035	-3
Cc1ccc(C(=O)/C=C/Nc2ccc(C(F)(F)F)cc2)cc1	-78	0.7	-0.14	-57
CC(CCC(=O)Nc1ccccc1)C(=O)O (stereo unspecified)	/	2.2	/	2
C[C@@H]1CN([C@H](C)CO)C(=O)Cc2cc(NC(=O)CCCCCC(=O)Nc3ccccc3N)ccc2O[C@@H]1CN(C)CC1CCCCC1	/	-0.8	-0.27	5
Cc1noc(C)c1NC(=O)N(C)C[C@H]1Oc2ccc(NS(C)(=O)=O)cc2CC(=O)N([C@@H](C)CO)C[C@@H]1C	-5	/	0.15	-3
C[C@H](CO)N1C[C@H](C)[C@H](CN(C)CC2CCCCC2)Oc2ccc(NC(=O)Nc3cccc4ccccc34)cc2C1=O	36	/	0.32	-13

Screening results: PubChem BioAssay, Broad Institute
